Source: PubChem BioAssay
Mtb betalactam: beta-lactam sensitization of Mtb H37Rv | M. tuberculosis H37Rv growth with meropenem, percent inhibition; hits of this screen are not shown here | inhibition, % at 25 µM | hit rate 0.27% among 330,000 | AID 434955;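 active = about 74% or more and at least 40 points above the plate without the antibiotic, then above 30% in a dose series; inconclusive = first-round hits that could not be retested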;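 note: growth measured after seven days incubation then overnight dye step; 0% = bacteria only wells and 100% = bacteria with antibiotic; twin plates without the antibiotic show which effects depend on it; some results filed as inactive read as strong as hits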
Active calls of the source: *; ? = inconclusive. A portion of the library, so the mix of outcomes need not match the whole.

mol	Mtb betalactam
NCc1cccc(CNc2ccc([N+](=O)[O-])cc2C(N)=O)c1	4
O=C(C[C@H]1C/C=C\C[C@@H](Cc2ccc(F)cc2)C(=O)O[C@H](c2ccccc2)CNC1=O)N[C@@H](CO)Cc1ccccc1	4
CCOc1ccc(NC(=O)CN(C)C(=O)CC2CCCCC2)cc1OCC	-5
C[C@H](CO)N1C[C@H](C)[C@@H](CN(C)C(=O)Nc2ccc3c(c2)OCO3)Oc2ccc(NC(=O)C3CCCCC3)cc2C1=O	4
COc1ccc(OCCCC(=O)ON=C(N)c2ccccc2Cl)cc1	5
CCn1nc(C(=O)NNC(=O)C(Cc2ccccc2)NC(N)=O)c2ccccc2c1=O (centres undefined)	-4
C[C@]12C[C@H](O)[C@@H](O)CC1=CCC1C2CC[C@@]2(C)C1CC[C@@H]2O (some centres undefined)	-8
Cn1nc(C(=O)OCC(=O)Nc2ccc(SC(F)F)cc2)c2ccccc2c1=O	-8
O=C(CCNC(=O)c1ccco1)Nc1ccc(Cl)cc1F	1
Cc1ccc([C@@H]2CC=C(C(=O)O)[C@H](c3ccccc3F)N2S(=O)(=O)c2ccc(C)cc2)cc1	-4

Carrying on:
mol	Mtb betalactam
CC(=O)c1c(C)[nH]c(C(=O)OCC(=O)Nc2c(C)cccc2C)c1C	-5
Cc1ccc(C)c(OCC(=O)NNC(=O)CCN2CCN(c3ccccc3)CC2)c1	7
C=CC[C@@H](CC(=O)N(CCO)Cc1ccccc1)C(=O)NC[C@H](OC(=O)[C@@H](CC=C)CC(=O)OC(C)(C)C)c1ccccc1	3
CCCCn1c(N)c(N(CCC(C)C)C(=O)COC(=O)c2cccnc2Cl)c(=O)[nH]c1=O	5
Cc1ccc(SCC(=O)OCC(=O)NC(C)c2ccc(Br)cc2)cc1 (centres undefined)	-3
Cc1nc(SCC(=O)NC2CCCC2)c2c(C)c(C)sc2n1	-3
COc1ccc(CNC(=O)COC(=O)[C@H](Cc2ccccc2)NC(=O)c2cccs2)cc1	0
C[C@H](CO)N1C[C@H](C)[C@@H](CN(C)C(=O)Nc2ccccc2)Oc2c(NC(=O)Nc3ccccc3)cccc2C1=O	5
CCOC(=O)[C@H]1[C@H]2COc3ccc(Br)cc3[C@@H]2N2C(=O)CN(Cc3ccccc3)C(=O)[C@@]12C	0
Nc1nc(COC(=O)CCC(=O)c2ccc(Cl)cc2)nc(Nc2ccccc2)n1	-3

Additional records follow:
mol	Mtb betalactam
Cn1cc([N+](=O)[O-])c(C(=O)NC2CCCCCCC2)n1	?
Cc1nc2nc(SCC(=O)NCCCN3CCCCC3)nn2c(C)c1Cc1ccccc1	3
CCOC(=O)[C@@H](C)NS(=O)(=O)N(Cc1ccccc1)[C@H](C(=O)OC)C(C)C	2
CCC1(CC)NC(=O)N(CC(=O)Nc2ccc(-n3cnnn3)cc2)C1=O	-4
O=C(COC(=O)CNC(=O)C1CCCCC1)Nc1ccccc1	-2
C#CCOCCOCCOCCNc1nc(N2CCN(C(=O)[C@H]([C@@H](C)CC)n3cc(CCCCN)nn3)CC2)nc(N2CCN(C(=O)[C@H](CCCCN)n3cc(CCC(=O)O)nn3)CC2)n1	0
CC1CCN(C(=O)COC(=O)c2ccccc2C(=O)c2ccccc2)CC1	-1
O=C(Nc1cccc(S(=O)(=O)N2CCCCC2)c1)c1ccco1	-10
CC(=O)C[C@H](O)CC(=O)[C@@H]1OC(=O)[C@H](C)C/C=C\Cc2ccccc21	-2
COc1ccc(/C=C/C(=O)OCC(=O)NC2CCCC(C)C2C)c(OC)c1 (centres undefined)	-1

Other structures follow.
mol	Mtb betalactam
Cc1onc(-c2ccccc2)c1C(=O)OCc1nnc(-c2ccc([N+](=O)[O-])cc2)o1	-7
CN(C)CCOc1ccc(-c2c(-c3ccsc3)sc3ccccc23)cc1	100
COc1ccc(Cl)cc1NC(=O)CN(C)C(=O)Cn1[nH]c(=O)c2ccccc2c1=O	-1
CC(C)(C)OC(=O)C[C@@H]1C/C=C\C[C@@H](CC(=O)N(CCO)Cc2ccccc2)C(=O)N2CCC[C@@H]2COC1=O	-3
CC(OC(=O)/C=C/c1cccs1)C(=O)Nc1ccc(C(N)=O)cc1 (centres undefined)	2
CC(C)CN1C(=O)C(=O)N(CC(=O)N(C)CC(=O)Nc2ccc(Cl)c(C(F)(F)F)c2)C1=O	1
O=C(CCC(=O)N1C[C@H]2C[C@@H](C1)c1cccc(=O)n1C2)NCc1ccc(F)cc1	0
CCc1ccc(C(c2ccc(CC)cc2)C(Cl)Cl)cc1	8
O=C(OC1CC2CCC(N2)C1C(=O)O)c1ccccc1 (centres undefined)	-2
O=C(COC(=O)[C@H](Cc1ccccc1)NC(=O)c1ccco1)Nc1ccccc1OC(F)F	-7

Remaining list, next part
mol	Mtb betalactam
Nc1ccc(-c2c3ccc(=O)cc-3oc3cc(O)ccc23)c(C(=O)O)c1	2
C#CCOCCOCCOCCNc1nc(N2CCN(C(=O)Cn3cc(CCCCN)nn3)CC2)nc(N2CCN(C(=O)[C@H](CCCCN)n3cc(CCC(=O)O)nn3)CC2)n1	-2
Cc1cc(OCC(=O)N2CCC(C(=O)O)CC2)c2c3c(c(=O)oc2c1)CCC3	-4
O=C(COC(=O)/C=C/c1cccc(C(F)(F)F)c1)NC1CCCCCC1	-7
O=C(OCCc1cc2ccccc2c(=O)o1)c1ccc(C(F)(F)F)cc1	64
COc1cc(OC)cc(-c2c(-c3cccs3)c3cc(-c4ccc(SC)cc4)ccc3n2C)c1	3
CC1(C(=O)OCC(=O)Nc2ccc(Cl)cn2)CC1(Cl)Cl (centres undefined)	3
CC(C)N(Cc1ccccc1)C(=O)COC(=O)c1ccc2ncsc2c1	-3
CN(C)C1CCN(Cc2cc(COCc3ccccc3)c3cccnc3c2O)C1 (centres undefined)	14
Cc1ccc(NC(=O)C2CCN(C(=O)OC(C)(C)C)CC2)cc1S(=O)(=O)N1CCCCC1	0

(cont.)
mol	Mtb betalactam
COc1cc(OC)cc(C(=O)Nc2ccccc2C(=O)NC2CC2)c1	-3
CC(Sc1nnc(-c2ccco2)n1C)C(=O)NC1CCCC1 (centres undefined)	-15
COc1ccc(C(=O)NCC(=O)OCC(=O)c2c(C)[nH]c3ccccc23)cc1OC	-1
CC(C)(C)c1ccc(C(=O)CCC(=O)OCC(=O)NCCc2ccc(S(N)(=O)=O)cc2)cc1	0
COc1cc(C(=O)NNC(=O)/C=C/c2ccccc2)cc(OC)c1OC	3
Cc1ccc(S(=O)(=O)NCCC(=O)NC2CCC(C)CC2)cc1 (centres undefined)	-1
Cc1ccc(C(=O)OCC(=O)NCc2ccc3c(c2)OCO3)o1	-4
COc1cccc(C(=O)Nc2ccccc2N2CCN(C(=O)c3ccccc3)CC2)c1	-2
Nc1c(N(Cc2ccco2)C(=O)c2ccc(Br)cc2)c(=O)[nH]c(=O)n1Cc1ccccc1	5
COc1ccc(/C=N/NC(=O)c2nn(C)cc2Br)cc1CSCc1ccco1	?

The results go on:
mol	Mtb betalactam
C=CCn1c(SCC(=O)c2ccc(O)c(O)c2)nnc1-c1cccc(Cl)c1	-4
Cc1onc(-c2c(Cl)cccc2Cl)c1C(=O)N1CCN(Cc2ccccc2)CC1	0
O=C(COC(=O)c1cccnc1Cl)NC12CC3CC(CC(C3)C1)C2	0
O=[N+]([O-])c1ccccc1S(=O)(=O)NCCSCc1ccco1	2
Nc1nc(COC(=O)C2CC(=O)N(Cc3ccccc3Cl)C2)nc(Nc2ccccc2)n1 (centres undefined)	-2
O=C(OCC(=O)N1CCc2ccccc2C1)c1ccc(Cl)c([N+](=O)[O-])c1	85
COc1ccc(Cl)cc1NC(=O)CN(C)C(=O)c1ccc(-n2cncn2)cc1	3
CCCn1c(SCC(=O)Nc2ccc3c(c2)OCO3)n[nH]c1=O	2
CC(=O)c1ccc(NC(=O)c2cc(=O)[nH]c3ccccc23)cc1	-11
COC(=O)C1=C(c2ccc(OC(F)(F)F)cc2)C[C@@H]2CC[C@H]1N2C(=O)NCCO	4

(more compounds)
mol	Mtb betalactam
CCCCn1c(N)c(N(CCOC)C(=O)c2cc(=O)[nH]c3ccccc23)c(=O)[nH]c1=O	3
CC(=O)N1c2ccc(F)c(F)c2C[C@H]1C	7
Cc1noc(C)c1NC(=O)Nc1cccc2c1O[C@H](CN(C)C(=O)Nc1ccc3c(c1)OCO3)[C@@H](C)CN([C@H](C)CO)C2=O	-1
Cc1ccc2nc(SCC(=O)Nc3oc(C)c4c(C)n[nH]c(=O)c34)[nH]c2c1	-2
CCOc1ccc(S(=O)(=O)NN=C(C)c2cccnc2)cc1	0
CC(Cc1ccccc1)NC(=O)CN1C(=O)c2ccccc2S1(=O)=O (centres undefined)	?
CCc1noc(C)c1C(=O)NNC(=O)c1ccc(N(CC)CC)cc1	1
Cc1ccc(SCC(=O)NNC(=O)c2cncc(Br)c2)cc1	1
Cc1ccccc1CN1CCN(C(C)C(=O)NNC(=O)c2ccc(F)cc2)CC1 (centres undefined)	0
Cc1nn(CC(=O)Nc2ccc(N3CCOCC3)cc2)c(C)c1[N+](=O)[O-]	-4

New compounds follow
mol	Mtb betalactam
CC(=O)Nc1ccc(S(=O)(=O)N2CCCC3CCCCC32)cc1 (centres undefined)	2
CSc1ncccc1C(=O)NCC(c1ccco1)N1CCCCC1 (centres undefined)	5
COc1ccccc1NS(=O)(=O)c1ccc(C(=O)Nc2ncccc2O)cc1	-6
CCCCCCCCC(NC(=O)c1ccc(C#N)cc1)C(=O)NCCC (centres undefined)	-4
COc1ccc(NC(=O)Nc2cccc3c2O[C@H](CN(C)S(=O)(=O)c2ccc(F)cc2)[C@@H](C)CN([C@H](C)CO)C3=O)cc1	3
CNC[C@H]1Oc2c(NS(=O)(=O)c3ccccc3)cccc2C(=O)N([C@H](C)CO)C[C@@H]1C	-5
CCCCN(C(=O)c1cnccn1)c1c(N)n(CCC)c(=O)[nH]c1=O	-13
CCCSc1ccc([C@@H]2[C@H]3C(=O)N(CC)C(=O)[C@H]3[C@]3(C(=O)OC)CCCN23)cc1	-5
O=C(Cn1[nH]c(=O)c2ccccc2c1=O)NCC1COc2ccccc2O1 (centres undefined)	-3
CC1CCCCC12NC(=O)N(CC(=O)NCC(=O)Nc1ccc(F)c(F)c1F)C2=O (centres undefined)	-4

Continued:
mol	Mtb betalactam
Cc1ccc(S(=O)(=O)N(C)C[C@@H]2Oc3ccc(NS(C)(=O)=O)cc3CC(=O)N([C@H](C)CO)C[C@@H]2C)cc1	3
O=C(NCc1ccco1)c1cc(-c2ccccc2)nn1CC1CC(c2cccc([N+](=O)[O-])c2)=NO1 (centres undefined)	0
O=C(NC1CC1)c1sc2cc(F)ccc2c1Cl	-5
Cc1ccccc1CCNC(=O)C1CC(O)CN1C(=O)Nc1ccccc1 (centres undefined)	-7
COc1ccc(C2(C)NC(=O)N(CC(=O)N(c3ccccc3)C3CCS(=O)(=O)C3)C2=O)cc1 (centres undefined)	4
CC(C)[C@H](NC(=O)N1CC(=O)Nc2ccccc21)C(=O)N1CCC[C@@H]1C(=O)O	-6
O=C(OCc1c(-c2ccccc2)ncc2ccccc12)c1ccccc1C(F)(F)F	16
COc1ccc(NC(=O)Cc2ccsc2)cc1S(=O)(=O)N1CCOCC1	1
CCc1onc(C)c1C(=O)Nc1ccc(N2CCOCC2)cc1	-4
CCOC(=O)CCCCCC(=O)Nc1ccc2c(c1)CC(=O)N([C@@H](C)CO)C[C@@H](C)[C@@H](CN(C)C(=O)Nc1ccc(C(F)(F)F)cc1)O2	-5

The list continues.
mol	Mtb betalactam
CC(=O)Nc1ccc(S(=O)(=O)NCC(=O)OCC(=O)Nc2sccc2C(N)=O)cc1	0
COc1ccc(NC(=O)CSCC(=O)N(C)CC(=O)Nc2c(C)cccc2C)cc1	-5
CCC1Nc2ncnc(N3CCOCC3)c2N(Cc2ccc(OC)cc2)C1=O (centres undefined)	-4
COc1ccc(C(CNC(=O)c2cccc(NC(=O)c3cccs3)c2)N2CCCC2)cc1 (centres undefined)	7
Cc1ccc(NC(=O)CNc2cc(S(=O)(=O)N3CCOCC3)ccc2N2CCOCC2)cc1S(=O)(=O)N(C)C	-2
COc1ccccc1NC(=O)c1ccc2c(c1)OCO2	0
CC1CCCCN1C(=S)NC(=O)c1ccccc1 (centres undefined)	38
NC[C@H](Cc1ccccc1)NCCCCC1CCCCC1	-19
COCCn1c(=O)[nH]c2cc(C(=O)N3CCN(c4cc(C)ccc4C)CC3)ccc2c1=O	16
C[C@H](CO)N1C[C@H](C)[C@@H](CN(C)C(=O)NC2CCCCC2)Oc2c(NC(=O)c3ccncc3)cccc2C1=O	-4

The results go on:
mol	Mtb betalactam
O=C(/C=C/Nc1ccc(Br)cn1)c1cccc(OC(F)F)c1	-1
O=C(COC(=O)C1=COCCO1)Nc1cc(Cl)c(Cl)cc1Cl	73
CCCN1CN=C(NS(=O)(=O)c2ccc(C)cc2)NC1	-6
O=C(COC(=O)c1ccc(O)cc1)Nc1ccc(S(=O)(=O)N2CCCC2)cc1	1

Four compounds drawn at random from those above:
mol	Mtb betalactam
CC(=O)Nc1ccc(S(=O)(=O)NCC(=O)OCC(=O)Nc2sccc2C(N)=O)cc1	0
CCOc1ccc(S(=O)(=O)NN=C(C)c2cccnc2)cc1	0
COc1cc(OC)cc(-c2c(-c3cccs3)c3cc(-c4ccc(SC)cc4)ccc3n2C)c1	3
COc1ccc(C(CNC(=O)c2cccc(NC(=O)c3cccs3)c2)N2CCCC2)cc1 (centres undefined)	7

A run of entries from the list above, as a working copy:
mol	Mtb betalactam
O=C(COC(=O)C1=COCCO1)Nc1cc(Cl)c(Cl)cc1Cl	73
CCCN1CN=C(NS(=O)(=O)c2ccc(C)cc2)NC1	-6
O=C(COC(=O)c1ccc(O)cc1)Nc1ccc(S(=O)(=O)N2CCCC2)cc1	1
